# VDR inhibitor – Inhibitors of the vitamin D receptor (VDR): qHTS | 0.93% of 400,000 active | Vitamin D3 receptor (Homo sapiens), P11473 | AID 504847, 2011 | VDR-SRC2-3 peptide fluorescence polarization, 2 h | Potency, µM, for inactives: max response, negative = inhibition, actives largely listed as inhibitors; active means well fitted inhibition curve with a large enough effect; inconclusive means small, poorly fitted or top-dose-only effect, or another doubt; inactive means no such curve, though single readings can be large or run the other way; further: series mostly up to about 120 µM
# Target sequence (P11473 whole entry, looked up): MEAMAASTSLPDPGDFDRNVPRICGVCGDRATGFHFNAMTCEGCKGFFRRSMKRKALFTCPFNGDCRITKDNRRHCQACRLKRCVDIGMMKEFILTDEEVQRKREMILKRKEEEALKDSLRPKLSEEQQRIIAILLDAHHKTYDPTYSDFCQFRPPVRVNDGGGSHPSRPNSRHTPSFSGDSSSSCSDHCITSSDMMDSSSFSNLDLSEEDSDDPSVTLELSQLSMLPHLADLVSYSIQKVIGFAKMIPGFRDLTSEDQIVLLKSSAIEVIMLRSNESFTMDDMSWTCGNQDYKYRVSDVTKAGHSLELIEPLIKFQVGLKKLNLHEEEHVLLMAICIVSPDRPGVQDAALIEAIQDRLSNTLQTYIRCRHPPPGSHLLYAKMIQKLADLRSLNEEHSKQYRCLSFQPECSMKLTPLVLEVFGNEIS
#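 FP read-out; VDR + SRC2-3 coactivator peptide; 23 nl compound by pintool; 2 h RT incubation; reagents held at 4 deg C, protected from light.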
# Starred values were filed as active, the others as inactive; ? = inconclusive. On the % scale 0 is the no-effect control and ±100 the full control effect; potency means the concentration at half of the fitted maximal effect. These rows are one share of the data, so the mix of outcomes need not match the whole.
VDR inhibitor	molecule
-24%	CC(C)(C)CC(=O)OCC(=O)Nc1cc(C(C)(C)C)nn1-c1ccccc1
-24%	CCCc1c(C(=O)OCC)[nH]c2c1C(=O)CCC2
17%	S=C(NCC1CCCO1)N1CCN(Cc2ccccc2)CC1 (centres undefined)
6%	COC(=O)c1ccccc1NC(=O)N[C@@H](C)C(=O)OC
1%	O=C(Cc1ccsc1)NNC(=O)c1ccc(F)cc1
16%	CSCCC(NS(=O)(=O)c1cccs1)C(=O)NCc1cccs1 (centres undefined)
-2%	O=C(NC1CSCC1OC(=O)c1ccccc1)c1ccccc1 (centres undefined)
7%	O=[N+]([O-])c1ccc(CN2CCCCCC2)cc1
-14%	Cc1csc(=O)n1CC(=O)OCC(=O)c1ccc(Br)cc1
-7%	O=C(OCC(=O)N1c2ccccc2Sc2ccccc21)c1ccc[n+]([O-])c1
-19%	Cc1ccc(OCC(=O)Nc2cc(NC(=O)COc3ccc(C)c(C)c3)cc(C(=O)O)c2)cc1C
-4%	Cc1noc(C)c1-c1nnc(-c2ccc(OC(F)(F)F)cc2)o1

# Of the compounds above, these contain nitrogen in an aromatic ring.
VDR inhibitor	molecule
-24%	CC(C)(C)CC(=O)OCC(=O)Nc1cc(C(C)(C)C)nn1-c1ccccc1
-24%	CCCc1c(C(=O)OCC)[nH]c2c1C(=O)CCC2
-14%	Cc1csc(=O)n1CC(=O)OCC(=O)c1ccc(Br)cc1
-7%	O=C(OCC(=O)N1c2ccccc2Sc2ccccc21)c1ccc[n+]([O-])c1
-4%	Cc1noc(C)c1-c1nnc(-c2ccc(OC(F)(F)F)cc2)o1

# Later entries:
VDR inhibitor	molecule
1%	O=C(CSc1nnnn1C1CCCC1)c1ccc2c(c1)OCCO2
0%	Cc1cccc(NS(=O)(=O)c2cc(C(=O)N3CCN(C)CC3)ccc2C)c1
-3%	COc1cccc(C(=O)COc2ccc3c(C)cc(=O)oc3c2)c1
16%	Cc1ccc(S(=O)(=O)NCCC(=O)NCc2cccnc2)cc1
16%	CCCCc1ccc(-c2nc(N)n[nH]2)cc1
-9%	Cc1c(C(=O)NN2CCOCC2)oc2ccccc12
6%	CCN(CC)c1ccc(S(=O)(=O)N2CCOCC2)cc1NC(=O)CSc1cccc[n+]1[O-]
-4%	Cc1ccc(NC(=O)CSc2nc(=O)n(Cc3ccco3)c3c2CCC3)cc1F
-26%	COc1ccc(OC)c(NC(=S)NCCSc2ccc(C)cc2)c1
7%	FC(F)(F)c1cc(-c2ccco2)nc(NCc2ccc(Cl)cc2)n1
-6%	COc1ccc(-c2cc(C(F)F)n3ncc(C(=O)N4CCN(C(=O)c5ccco5)CC4)c3n2)cc1
-27%	Cc1nnc(NC(=O)CSc2nnc(CNC(=O)c3ccccc3F)n2C(C)C)s1
12%	COc1ccc(Cl)cc1NC(=O)Nc1ccc(Br)cn1
-3%	O=C(OCC(=O)N1CCCc2ccccc21)c1cccc(C(F)(F)F)c1
24%	Cc1ccc(C2CN(c3ccccc3)CC2C(=O)c2ccc(F)cc2)cc1 (centres undefined)
6%	COc1cccc(Cl)c1NC(=O)N1CCN(c2ccnc3cc(Cl)ccc23)CC1
7%	CCOc1ccc(CCNC(=O)C2CCCN(S(=O)(=O)N3CC(C)CC(C)C3)C2)cc1OCC (centres undefined)
-8%	Cc1ccc(CNC(=O)c2ccc(COc3ccccc3)cc2)cc1
-3%	COc1cc([N+](=O)[O-])ccc1NC(=O)COC(=O)C1=NN(c2ccccc2)C(=O)CC1
0%	COc1ccccc1NC(=O)CN1CCN(C2c3ccccc3-c3ccccc32)CC1
10%	COc1ccc(-c2cn3c(n2)sc2cc(C(=O)NC(C)C45CC6CC(CC(C6)C4)C5)ccc23)cc1 (centres undefined)
8%	CCN1C(=O)/C(=C\N(C)C)S/C1=N\S(=O)(=O)c1ccc(C)cc1
-4%	NC(=O)[C@@H]1CCCN1Cc1nc(Cc2ccccc2Cl)no1
-2%	Cc1cccc(C)c1OCc1cc(C(=O)N2CCC[C@H]2C(N)=O)no1
5%	Cc1nc2nc(SCc3nc4ccccc4[nH]3)[nH]c2cc1Br
-9%	CN(C)c1nc(Cl)nc(NCCOc2ccccc2)n1
-28%	CC(=O)c1ccc(OCCCC(=O)NCC(c2ccco2)N(C)C)cc1 (centres undefined)
1%	Nc1c(C(=O)NCc2ccco2)nnn1-c1ccccc1
-8%	CCOc1ccccc1NC(=O)COc1ccc2c(c1)OCO2
-13%	Cc1ccc(NCCC(=O)c2cccc([N+](=O)[O-])c2)c(C)c1
5%	Cc1cc(N2CCN(Cc3cn(C)nc3-c3cccc(Cl)c3)CC2)cc(C)n1
-15%	CCOc1ccccc1NC(=S)NC1CCCCC1
-21%	Cc1cc(NC(=O)CCC(=O)N(CC(=O)NCC2CCCO2)c2cccc(C)c2C)no1 (centres undefined)
-5%	Cc1cccc(OC(C)C(=O)N2CCCc3ccccc32)c1 (centres undefined)
?	CC(CN1CCCCC1)OC(=O)COc1ccc(Cl)cc1 (centres undefined)
-2%	CCOC(=O)c1sc(NC(=O)CSc2nc(-c3ccco3)cc(C(F)(F)F)n2)c(C(=O)OCC)c1C

# Among those listed so far, these contain an aryl methoxy group.
VDR inhibitor	molecule
-3%	COc1cccc(C(=O)COc2ccc3c(C)cc(=O)oc3c2)c1
-26%	COc1ccc(OC)c(NC(=S)NCCSc2ccc(C)cc2)c1
-6%	COc1ccc(-c2cc(C(F)F)n3ncc(C(=O)N4CCN(C(=O)c5ccco5)CC4)c3n2)cc1
12%	COc1ccc(Cl)cc1NC(=O)Nc1ccc(Br)cn1
6%	COc1cccc(Cl)c1NC(=O)N1CCN(c2ccnc3cc(Cl)ccc23)CC1
-3%	COc1cc([N+](=O)[O-])ccc1NC(=O)COC(=O)C1=NN(c2ccccc2)C(=O)CC1
0%	COc1ccccc1NC(=O)CN1CCN(C2c3ccccc3-c3ccccc32)CC1
10%	COc1ccc(-c2cn3c(n2)sc2cc(C(=O)NC(C)C45CC6CC(CC(C6)C4)C5)ccc23)cc1 (centres undefined)

# More compounds:
VDR inhibitor	molecule
3%	CC(NC(=O)c1ccc2ccccc2n1)c1ccc(S(N)(=O)=O)cc1 (centres undefined)
9%	COc1cccc(NC(=S)N2CCN(S(=O)(=O)c3ccc(F)cc3)CC2)c1
-19%	O=C(NCCCO)/C(=C\c1ccco1)NC(=O)c1ccco1
?	Cc1cccc(NC(=O)CCC(=O)N/N=C/c2cc([N+](=O)[O-])ccc2O)c1
5%	Cc1nnc(NC(=O)C2CCCO2)s1 (centres undefined)
-1%	COc1ccc(S(=O)(=O)Cc2ccc(C(=O)NCCCN3CCc4ccccc4C3)o2)cc1
12%	O=C(CSCc1ccc(Br)cc1)NCc1ccccn1
11%	COc1cccc(NS(=O)(=O)c2ccc3[nH]cc(C(=O)N(C)C4CCCCC4)c(=O)c3c2)c1
22%	CCOC(=O)c1c(C=O)c(C)n(Cc2ccccc2)c1C
16%	N#C/C(=C/c1ccc(N2CCCC2)c([N+](=O)[O-])c1)c1nc2ccccc2[nH]1
-2%	O=C(CC(=O)NN=C1CCCCCC1)NCc1cccnc1
4%	COc1ccc(CN(CC(=O)NC2CCCC2)C(=O)CCC(=O)Nc2cc(C)on2)cc1
-10%	O=C(CSc1ccc(-c2ccco2)nn1)NCc1ccc(Cl)cc1
-1%	COc1cc(-c2ccc(NC(C)=O)c(OC)c2)ccc1NC(C)=O
-1%	CS(=O)(=O)c1ccc(NC(=O)CCCc2nc3ccccc3c(=O)[nH]2)cc1
11%	Cc1ccc(NC(=S)NC2CCN(Cc3ccccc3)CC2)cc1C
-9%	O=C(CCc1ccc(F)c(F)c1)NC1CCCN(Cc2ccc(Cl)cc2)C1 (centres undefined)
4%	OCCCc1n[nH]c(=S)n1-c1ccccc1
6%	Cc1ccccc1-c1noc(-c2ccc(N3CCN(C)CC3)c([N+](=O)[O-])c2)n1
-4%	COc1ccc(OC)c(C(=O)CSc2nc3c(c(=O)n(C)c(=O)n3C)n2C(C)C)c1
-1%	Cc1ccccc1Nc1nc(N)nc(COC(=O)CC2CC3CCC2C3)n1 (centres undefined)
14%	O=C(CN1C(=O)C2CC=CCC2C1=O)Nc1ccc(F)cc1F (centres undefined)
-23%	CCN(Cc1cc(=O)n2cc(Cl)c(C)c(Cl)c2n1)Cc1nc2ccccc2c(=O)[nH]1
-4%	CCOC(=O)c1c(SC)nc(SC)c2c1CCC2
-1%	CCCN(CC(=O)Nc1ccccc1C)C(=O)c1ccc(-c2ccccc2)cc1
7%	Cc1ccccc1NC(=O)CSc1nc2ccc(NC(=O)c3cccs3)cc2s1
7%	COc1ccc(Cc2nnc(Cl)c3ccccc23)cc1OC
-10%	Cn1cc(Cl)c(-c2n[nH]c(=S)n2-c2ccccc2)n1
-5%	O=C(O)CC/C(=N\Nc1ccc([N+](=O)[O-])cc1)c1ccccc1
-28%	O=[N+]([O-])c1cc(-c2csc(NCCc3nc4cc(Cl)c(Cl)cc4n3CCCO)n2)ccc1Cl
-9%	COc1ccc2c(c1)CCCN2S(=O)(=O)c1ccc(Cl)cc1
-14%	Cc1cccc(NC(=O)Cn2cc(C(=O)C3CCCCC3)c3ccccc32)c1C
4%	CCn1ncc(NC(=S)Nc2ccc3c(c2)OCO3)c1C(N)=O
-5%	O=C(Cn1ncc2c3ccccc3n(Cc3ccc(F)cc3)c2c1=O)NCCCN1CCCCC1
6%	COc1ccc(N=CC2=C(O)CCCC2=O)cc1
4%	Cc1cc(N/N=C/c2ccc(O)cc2)c2cccc(C)c2n1
15%	CC(=O)Nc1cccc(Nc2nc(-c3cccs3)nc3ccccc23)c1
-6%	CC1CCN(C(=O)c2ccc(S(=O)(=O)N3CCOCC3)cc2)CC1
8%	COc1cc(CN2CCN(c3ncccn3)CC2)cc(OC)c1
3%	O=C(CN1CCOCC1)OCCCc1ccccc1
-9%	Cc1[nH]c2ccccc2c1C(=O)C(C)OC(=O)C1CCC1 (centres undefined)
6%	Oc1ccc2ccccc2c1C=Nc1ccccc1Br
-4%	O=C(CC1NCCC[C@H]1O)Cn1cnc2cc(Br)c(Cl)cc2c1=O (some centres undefined)
-5%	C(=N\n1cnnc1)/c1cccn1-c1ccccc1
-1%	CCC(CO)N=CC1=C(O)C(C(=O)c2ccccc2)CCC1=O (centres undefined)
17%	CC(C)c1ccc(NC(=O)C2(C)Cc3ccccc3C(=O)O2)cc1 (centres undefined)
-14%	COc1ccc(-c2nnn(CC(=O)N(CC3CCCO3)C(C(=O)NC(C)(C)C)c3ccco3)n2)cc1OC (centres undefined)
10%	CN(C)c1ccc(S(=O)(=O)N(C)C)cc1NC(=O)Cc1cccc2ccccc12
-6%	CC(OC(=O)Cc1ccc(Cl)cc1)C(=O)NC1CCCCC1C (centres undefined)
?	Cc1ccc(N2C(=O)[C@@H]3[C@H](C2=O)C2c4ccccc4C=CN2[C@@H]3C(=O)c2ccco2)cc1 (some centres undefined)
-3%	Cc1ccc2nc(SC(C)C(=O)N3CCCCC3)[nH]c2c1 (centres undefined)
19%	Cc1nn(C)c(C)c1S(=O)(=O)N(CC(=O)NCCCN1CC(C)CC(C)C1)c1ccc(C(C)C)cc1 (centres undefined)
2%	Brc1ccc2[nH]c3c(c2c1)CCC3
4%	O=C(COc1ccc(Cl)cc1)NNC(=O)c1ccc(=O)[nH]c1
-7%	O=C(Nc1ccccc1Br)c1ccc2nccnc2c1
-8%	O=C(NC(=O)N1CCCCC1)c1ccc(Cl)cc1
1%	Cn1ccnc1C(O)c1ccco1 (centres undefined)
-4%	Clc1ccc(Nc2nc(N3CCOCC3)nc(N3CCOCC3)n2)cc1Cl
-7%	CCOC(=O)CC(=O)CSc1ncc(C(=O)OCC)c(N)n1
-20%	COc1ccc(C2c3[nH]c4ccccc4c3C[C@H]3C(=O)N(CCCO)CC(=O)N23)c(OC)c1 (some centres undefined)

# (cont.)
VDR inhibitor	molecule
-9%	COc1ccc(CCNC(=O)Cn2nnc(-c3ccc(N(C)C)cc3)n2)cc1OC
9%	COC(=O)c1nn(-c2cccc(C(F)(F)F)c2)ccc1=O
7%	CCOC(=O)c1c(NC(=O)COc2ncnc3ccccc23)sc(C(C)=O)c1C
-8%	COc1ccccc1CC(=O)N1CCCC1
-10%	COC(=O)CN1CCN(C(=O)c2ccc(F)cc2)c2ccccc2C1
0%	CC/C(=C(/CC)c1ccc(OP(=O)(O)O)cc1)c1ccc(OP(=O)(O)O)cc1
-3%	CS(=O)(=O)NCc1ccc(C(=O)NCc2ccccc2)cc1
-7%	N#C/C(=N/Nc1ccccc1F)C(=N)N1CCOCC1
?	CC(=O)C(=Nc1cccc(Cl)c1)NNc1ccccc1C
-2%	COCCNC(=O)CN(c1cc(Cl)ccc1OC)S(=O)(=O)c1ccc(C)c([N+](=O)[O-])c1
-8%	Cc1cc(NC(=O)C(C)C)ncc1NC(=O)Cc1ccccc1
-15%	COc1cccc(NC(=O)CN(C)C(=O)c2cc(S(=O)(=O)NCc3ccccc3)ccc2C)c1
2%	COc1ccc(OCc2nc3ccccc3n2C(C)C)cc1
14%	COC(=O)c1c(NC(=O)CN2CCN(Cc3ccc4c(c3)OCO4)CC2)sc(C)c1C
13%	COc1ccc(N2CCN(C(=O)CCCn3c(=O)[nH]c4cc(Cl)ccc4c3=O)CC2)cc1
-11%	c1ccc(CSC2=NCCCN2)cc1
-15%	COc1cc2c(-c3ccc(C)cc3)nc3c(c(C)nn3-c3ccccc3)c2cc1OC
15%	CCN(CC(=O)NCc1cccs1)C(=O)/C=C/c1ccc(C)cc1
-8%	COc1ccccc1NC(=O)COc1cc(Br)c(CNCCCN2CCOCC2)cc1OC
0%	O=S(=O)(Nc1ccccc1N1CCOCC1)c1ccc(Cl)s1
-2%	COc1ccccc1-c1nnc(NC(=O)c2ccc3ncsc3c2)o1
-7%	Cc1ccc(-n2ncc(C(=O)NCc3ccccc3)c2C2CCN(C(=O)OC(C)(C)C)CC2)cc1
-24%	O=[N+]([O-])c1ccc(CNc2ccc(F)cc2)s1

# Compound activity: PubChem BioAssay, National Center for Advancing Translational Sciences (NCATS)
